Source: PubChem BioAssay (ICCB-Longwood Screening Facility, Harvard Medical School)
Vaccinia pol inh = vaccinia E9 polymerase processive synthesis inhibitors, primary screen, biochemical, absorbance. in vitro processive DNA synthesis, absorbance read-out; hits give low values; some inactives read as strong as hits. normalized absorbance, % (concentration not given with the values). 46,000 tested, 0.94% active;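 active = replicate mean up to 90% and picked by the depositor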;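 also: 100% = median of the test wells of a plate; 100 nL library stock went into each well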
* hit, by the source's call.

Cn1cc(-c2ccccc2C(=O)O)c(=O)c2ccccc21 was read as Vaccinia pol inh 98.
Screening CCN(CC)c1nc(N)nc(N(c2ccccc2)c2ccccc2)n1 returned Vaccinia pol inh 98.
For Brc1ccc(-c2nnc3sc(CN4CCCCCC4)cn23)cc1 the results were Vaccinia pol inh 101.
CCc1[nH]c(=O)c(C#N)c2c1CCCC2 was read as Vaccinia pol inh 95.
For CCOC(=O)Cc1n[nH]c(CC(=O)OCC)n1 the results were Vaccinia pol inh 100.
`CCCCN(CC)C(=O)c1cc2cc3ccc(C)cc3nc2o1` gave Vaccinia pol inh 96.
O=C(CN1C(=O)/C(=C\c2ccccc2Br)Oc2ccccc21)NC1CC1 was read as Vaccinia pol inh 97.
For CN1/C(=C/C=N/n2cnnc2)C(C)(C)c2ccccc21 the results were Vaccinia pol inh 84.
CCOc1ccccc1NC(=O)CSc1ncnc2ccccc12 was read as Vaccinia pol inh 98.
O=C(NCc1ccccc1)c1cnn2c(C(F)(F)F)cc(-c3ccco3)nc12 was read as Vaccinia pol inh 98.
`NC(=O)c1cn(-c2ccc(F)cc2)c(=O)c2ccccc12` gave Vaccinia pol inh 84.
`CCSc1nsc(SCC)c1C(=O)O` gave Vaccinia pol inh 105.
CCNc1[nH]c(=S)nc2c1cnn2-c1ccccc1 was read as Vaccinia pol inh 99.
`COc1ccc(CCn2c(C)nc(=O)c(-c3ccccc3)c2C)cc1OC` gave Vaccinia pol inh 100.
`CC1CC(=O)c2cnc(N3CCCCC3)nc2C1` (centres undefined) gave Vaccinia pol inh 103.
Screening O=c1n(CN2CCOCC2)c2ccccc2n1CN1CCOCC1 returned Vaccinia pol inh 99.
Screening O=C(CCc1nc2sc3c(c2c(=O)[nH]1)CCCC3)NC1CCCC1 returned Vaccinia pol inh 103.
COc1ccc(NC(=S)SC)cc1OC was read as Vaccinia pol inh 100.
O=C(CSc1nnc2ccccn12)NCCc1ccccc1 was read as Vaccinia pol inh 89.
CCCC1(C(=O)OCC)CC(CSC(=N)N)OC1=O (centres undefined) was read as Vaccinia pol inh 100.
CN(C)C(=O)CSc1nnc(-c2cccc(F)c2)n1-c1ccccc1 was read as Vaccinia pol inh 100.
`CC(=O)NC1=NN(C(C)=O)C2(S1)C(=O)N(Cc1ccccc1)c1ccccc12` (centres undefined) gave Vaccinia pol inh 100.
For Fc1ccc(CNCc2cccnc2)cc1 the results were Vaccinia pol inh 86.
For COC(=O)/C=C1/NC(=O)CS1 the results were Vaccinia pol inh 106.

Ordered by number of heavy atoms (lowest first): part of the list above
For COC(=O)/C=C1/NC(=O)CS1 the results were Vaccinia pol inh 106.
For Fc1ccc(CNCc2cccnc2)cc1 the results were Vaccinia pol inh 86.
CCCC1(C(=O)OCC)CC(CSC(=N)N)OC1=O (centres undefined) was read as Vaccinia pol inh 100.
O=C(CSc1nnc2ccccn12)NCCc1ccccc1 was read as Vaccinia pol inh 89.
`COc1ccc(CCn2c(C)nc(=O)c(-c3ccccc3)c2C)cc1OC` gave Vaccinia pol inh 100.
`CC(=O)NC1=NN(C(C)=O)C2(S1)C(=O)N(Cc1ccccc1)c1ccccc12` (centres undefined) gave Vaccinia pol inh 100.

Remaining list, next part
For O=C(N1CCOCC1)C(F)(F)F the results were Vaccinia pol inh 104.
CCCNC(=O)c1cc2c(=O)n3cccc(C)c3nc2s1 was read as Vaccinia pol inh 102.
`COc1ccc(NC(=O)C2CC(C)=C(C)CC2C(=O)O)c(N2CCOCC2)n1` (centres undefined) gave Vaccinia pol inh 96.
`O=C(NCCn1ccc2ccccc21)c1ccc(S(=O)(=O)N2CCCC2)cc1` gave Vaccinia pol inh 82.
CC(C)(C)N1CC(CO)OC1c1ccccc1 (centres undefined) was read as Vaccinia pol inh 105.
Screening Cc1[nH]c(-c2ccc(F)cc2)cc1C(=O)N1CCCCC1 returned Vaccinia pol inh 103.
`N#CSC1C=CS(=O)(=O)C1` (centres undefined) gave Vaccinia pol inh 101.
O=S1(=O)CCC(NS(=O)(=O)c2cccc3cccnc23)C1 (centres undefined) was read as Vaccinia pol inh 99.
For O=c1[nH]c(=S)c2c(n1Cc1ccco1)CCC2 the results were Vaccinia pol inh 103.
Screening CC1C(=O)Nc2ccccc2N1C(=O)C1CC1 (centres undefined) returned Vaccinia pol inh 72.
CC(=O)Oc1ccc2c(=O)c(-c3ccccc3)coc2c1C was read as Vaccinia pol inh 99.
Screening CCn1c(-n2nc(C)cc2N)nc2ccccc21 returned Vaccinia pol inh 104.
Screening Cn1c(/C(C#N)=C(\O)c2ccc(F)cc2)nc2ccccc21 returned Vaccinia pol inh 100.
COc1ccc(C[N+](C)(C)C2CCCCC2)cc1OC was read as Vaccinia pol inh 105.
For CCCC(C)Nc1oc(-c2ccc(Cl)cc2)nc1C#N (centres undefined) the results were Vaccinia pol inh 104.
Screening O=C1/C(=C/c2ccc3nccnc3c2)CCC/C1=C\c1ccc2nccnc2c1 returned Vaccinia pol inh 92.
Screening O=C(COc1ccc(Cl)cc1Cl)Nc1ccc(N2CCOCC2)cc1 returned Vaccinia pol inh 108.
`O=C(c1ccc(CSc2nc3ccncc3n2Cc2ccc(F)cc2)cc1)N1CCCCC1` gave Vaccinia pol inh 94.
Screening O=S(=O)(c1ccc(Cc2ccc(S(=O)(=O)N3CCCCC3)cc2)cc1)N1CCCCC1 returned Vaccinia pol inh 102.
O=C(c1ccccc1)c1nc2ccccc2s1 was read as Vaccinia pol inh 101.
For CCCN(C(=O)Cn1ncc2c1-c1ccccc1OC2)c1ccc(Cl)c(Cl)c1 the results were Vaccinia pol inh 94.
`Cc1nn(C(=O)c2cc3c(s2)CCCC3)c(C)c1Sc1ccc(Br)cc1` gave Vaccinia pol inh 100.
`CCOC(=O)C1=NN(c2ccccc2)C(=C2C(=O)c3ccccc3C2=O)C1c1cccs1` (centres undefined) gave Vaccinia pol inh 104.
For Oc1ccc(O)c(Cc2nc3ccccc3[nH]2)c1 the results were Vaccinia pol inh 101.
For O=C(Nc1ccccc1Cl)c1csc2c1CCCC2 the results were Vaccinia pol inh 100.
For COc1ccc(C)cc1NC(=O)C(=S)NCc1ccco1 the results were Vaccinia pol inh 98.
For CC(=O)Nc1ccc(N=Cc2ccc(N3CCOCC3)cc2)cc1 the results were Vaccinia pol inh 100.
Cc1nc2c(cnn2-c2ccccc2)c(=O)[nH]1 was read as Vaccinia pol inh 102.
Cc1cc(NC(NC(=O)N(C)C)(C(F)(F)F)C(F)(F)F)no1 was read as Vaccinia pol inh 92.
For O=C(O)C(O)C(O)c1nc2ccccc2[nH]1 (centres undefined) the results were Vaccinia pol inh 100.
Screening Cc1ccc(NC(=O)CSC2=NCCN2)cc1 returned Vaccinia pol inh 92.
`COc1ccc(CNCc2cn3c(-c4ccc(Br)cc4)nnc3s2)cc1` gave Vaccinia pol inh 98.
`c1csc(-c2nc3ccccc3[nH]2)c1` gave Vaccinia pol inh 100.
`COCCn1c(=O)c2ccccc2c2ccccc2c1=O` gave Vaccinia pol inh 100.
O=S(=O)(c1ccc(Oc2ccccc2)nc1)N1CCCC1c1ccc(F)cc1 (centres undefined) was read as Vaccinia pol inh 107.
Cc1cc2ncc(C(=O)O)c(C(F)(F)F)n2n1 was read as Vaccinia pol inh 93.
For NC(=O)COC(=O)/C=C/c1ccc(Cl)cc1Cl the results were Vaccinia pol inh 95.
For O=C1OC2(CCCCC2)OC(=O)C1=CNc1nccs1 the results were Vaccinia pol inh 100.
CCOC(=O)C(Cc1ccccc1)C(=O)Nc1nc2ccccc2s1 (centres undefined) was read as Vaccinia pol inh 100.
NS(=O)(=O)c1ccc2nc(NC(=O)C3CC3)sc2c1 was read as Vaccinia pol inh 101.
For CCOC(=O)/C=C(\C)Nc1ccc(Cl)cc1 the results were Vaccinia pol inh 100.
`Cc1ccccc1OCC(=O)NC(C)(C)C` gave Vaccinia pol inh 101.
Screening CC(=O)NC(C)c1nc2ccccc2n1C(C)C (centres undefined) returned Vaccinia pol inh 100.
COc1ccc2c(c1)SC1=NC(c3ccccc3)(C(F)(F)F)NC(=O)N12 (centres undefined) was read as Vaccinia pol inh 100.
For Cc1cc(Nc2ccccc2)n[nH]1 the results were Vaccinia pol inh 99.
`CCc1nc(SCS(=O)(=O)c2ccc(C)cc2)c(C#N)c2c1CCCC2` gave Vaccinia pol inh 98.
`COCc1cc(=O)[nH]c2c1c(-c1cccs1)nn2C` gave Vaccinia pol inh 107.
For O=C(Nc1ccc(S(=O)(=O)Nc2nccs2)cc1)c1cc(-c2ccccc2)nc2ccccc12 the results were Vaccinia pol inh 100.
Screening CCCc1nc(Nc2nc3ccccc3o2)ncc1C(=O)OCC returned Vaccinia pol inh 94.
For Cc1cc(C)c(S(=O)(=O)NCCO)c(C)c1 the results were Vaccinia pol inh 83.
Screening O=C(NCc1ccccc1)c1cc(C2CC2)on1 returned Vaccinia pol inh 98.
Screening Cc1cc2cc(CNC(=O)c3ccccc3)ccc2n1C returned Vaccinia pol inh 95.
Screening CCCCn1c(CCCNC(C)=O)nc2ccccc21 returned Vaccinia pol inh 99.
For Cc1ccc(N(C2CCS(=O)(=O)C2)S(C)(=O)=O)cc1 (centres undefined) the results were Vaccinia pol inh 94.
CN(C1CCCCC1)S(=O)(=O)c1cc2c(cc1Cl)NC(=O)CO2 was read as Vaccinia pol inh 105.
`C=CCc1ccc(Oc2ncnc3sc(C)c(C)c23)c(OC)c1` gave Vaccinia pol inh 101.
Cc1ccc(N(C)S(=O)(=O)c2cc(Br)cnc2N)cc1 was read as Vaccinia pol inh 96.
Screening CCCc1nc2ccccc2c(C(=O)O)c1CC returned Vaccinia pol inh 101.
CNC(=O)/C(=C\c1ccc2c(c1)OCO2)NC(=O)c1ccco1 was read as Vaccinia pol inh 101.
NNC(=O)c1cc(OCC(F)(F)F)nc(OCC(F)(F)F)c1 was read as Vaccinia pol inh 103.
For N=C(N)c1ccc(OCCCCCOc2ccc(C(=N)N)cc2)cc1 the results were Vaccinia pol inh 98.
For Cn1ccnc1SCC(=O)Nc1cccc2ccccc12 the results were Vaccinia pol inh 100.
Screening COc1ccc(C2NCC3(C)CN2CC(C)C3O)cc1OC (centres undefined) returned Vaccinia pol inh 101.
O=S(=O)(NC1CCCCC1Sc1nc2ccccc2o1)c1ccc(Cl)cc1 (centres undefined) was read as Vaccinia pol inh 107.
`N=c1c2c3c(sc2ncn1Nc1ccccc1)CCC3` gave Vaccinia pol inh 88.
`COC(=O)c1ccc(N2CCCC2)c(NS(=O)(=O)c2ccc(C)cc2)c1` gave Vaccinia pol inh 104.
Screening CCOC(=O)C1NCCc2ccccc21 (centres undefined) returned Vaccinia pol inh 93.
For O=C(/C=C/c1cccs1)/C=C/c1cccs1 the results were Vaccinia pol inh 99.
For COC(=O)[C@@]1(C)CCCC2(C)c3ccc(C(C)C)cc3CCC21 (some centres undefined) the results were Vaccinia pol inh 100.
`CN(Cc1ccccc1)c1ncnc2c1cnn2-c1ccccc1` gave Vaccinia pol inh 100.
For COc1ccc(CNC(=O)c2cc(C(C)C)on2)cc1 the results were Vaccinia pol inh 99.
O=C(Cc1ncc(C(F)(F)F)cc1Cl)NCC1CCCO1 (centres undefined) was read as Vaccinia pol inh 83.

Grouped by structure: the compounds so far containing a COOH group.
Cn1cc(-c2ccccc2C(=O)O)c(=O)c2ccccc21 was read as Vaccinia pol inh 98.
`CCSc1nsc(SCC)c1C(=O)O` gave Vaccinia pol inh 105.
`COc1ccc(NC(=O)C2CC(C)=C(C)CC2C(=O)O)c(N2CCOCC2)n1` (centres undefined) gave Vaccinia pol inh 96.
For O=C(O)C(O)C(O)c1nc2ccccc2[nH]1 (centres undefined) the results were Vaccinia pol inh 100.
Cc1cc2ncc(C(=O)O)c(C(F)(F)F)n2n1 was read as Vaccinia pol inh 93.
Screening CCCc1nc2ccccc2c(C(=O)O)c1CC returned Vaccinia pol inh 101.

New compounds follow.
CCCN1C/C(=C/c2ccc(OC)cc2)C(=O)/C(=C/c2ccc(OC)cc2)C1 was read as Vaccinia pol inh 100.
N#Cc1c(SCc2ccccc2F)nc(C(F)(F)F)c2c1CCC2 was read as Vaccinia pol inh 100.
Cn1nc(C(F)(F)F)c(-c2ccccc2)c1N1C(=O)C2C3C=CC(C3)C2C1=O (centres undefined) was read as Vaccinia pol inh 98.
Screening O=C(Nc1cccc(F)c1)[C@H](Cc1ccccc1)N1Cc2ccccc2C1=O returned Vaccinia pol inh 103.
For CC(=NCc1ccco1)C1=C(O)c2ccccc2C1=O the results were Vaccinia pol inh 100.
CSc1nc(N)c(C(=O)Nc2ccc(N(C)C)cc2)s1 was read as Vaccinia pol inh 100.
Screening CC(C)(C)C1CCC(OCC(O)CN2CCCCCC2)CC1 (centres undefined) returned Vaccinia pol inh 96.
COc1ccc(C#N)c(S(=O)Cc2ccccc2)c1 (centres undefined) was read as Vaccinia pol inh 100.
CN(C(=S)Nc1ccccc1)C1CCC(C2OCCO2)CC1O (centres undefined) was read as Vaccinia pol inh 100.
For CCOc1ccc2nc3c(c(C(=O)O)c2c1)CCCC3 the results were Vaccinia pol inh 104.
Screening CCOC(=O)c1cc(-c2ccccc2)n(CCCC(=O)N2CCCCC2)c1C returned Vaccinia pol inh 92.
Screening FC(F)(F)c1ccc(Cl)nc1 returned Vaccinia pol inh 100.
CCC(=O)Nc1nc2ccc(OC)cc2s1 was read as Vaccinia pol inh 100.
OC(CNCc1ccc(-c2cccs2)cc1)C(F)(F)F (centres undefined) was read as Vaccinia pol inh 127.
`O=C(COC(=O)c1n[nH]c2ccccc12)NC1CC1` gave Vaccinia pol inh 103.
Clc1ccc(OCc2nc3c4cnn(-c5ccc(Cl)cc5)c4ncn3n2)cc1 was read as Vaccinia pol inh 112.

Pulled by compound from the list above:
Clc1ccc(OCc2nc3c4cnn(-c5ccc(Cl)cc5)c4ncn3n2)cc1 was read as Vaccinia pol inh 112.
`O=C(COC(=O)c1n[nH]c2ccccc12)NC1CC1` gave Vaccinia pol inh 103.

This is a subset. The share of hits here may be higher or lower than overall.
